TRPV1 PAM: human TRPV1 potentiation; Q8NER1; TRPV1-expressing cells, Fluo-8 calcium influx, capsaicin EC20 potentiation; host cell line not named in the record; control for the full effect not named in the record; potentiation, % at 8.33 µM; 0.02% of 320,000 active; AID 540277; active means potentiation above 80%; inconclusive means 30% to 80%; inactive means below 30%; note: 0% is about no effect
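Cells expressing TRPV1 were dye-loaded with Fluo-8 and read kinetically: 10 s baseline, 3 min after compound (agonist portion), then 2 min after EC20 capsaicin (allosteric enhancer portion). Calcium-bound dye fluorescence at 480/520 nm.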
TRPML1 ag: agonists of human TRPML1 channel. Q9GZU1. TRPML1-expressing cells, Ca2+ dye fluorescence, FDSS; host cell line not named in the record; reference of the full effect not given here. activation, % (concentration not given with the values). 0.12% of 410,000 active. AID 624414; in the data active = activation above about 50%; inconclusive = about 30% to 50%; inactive = below about 30%; note: 0% is about no effect; the text of the record puts the active cut at 80%
Target sequence (Q9GZU1 whole entry, looked up): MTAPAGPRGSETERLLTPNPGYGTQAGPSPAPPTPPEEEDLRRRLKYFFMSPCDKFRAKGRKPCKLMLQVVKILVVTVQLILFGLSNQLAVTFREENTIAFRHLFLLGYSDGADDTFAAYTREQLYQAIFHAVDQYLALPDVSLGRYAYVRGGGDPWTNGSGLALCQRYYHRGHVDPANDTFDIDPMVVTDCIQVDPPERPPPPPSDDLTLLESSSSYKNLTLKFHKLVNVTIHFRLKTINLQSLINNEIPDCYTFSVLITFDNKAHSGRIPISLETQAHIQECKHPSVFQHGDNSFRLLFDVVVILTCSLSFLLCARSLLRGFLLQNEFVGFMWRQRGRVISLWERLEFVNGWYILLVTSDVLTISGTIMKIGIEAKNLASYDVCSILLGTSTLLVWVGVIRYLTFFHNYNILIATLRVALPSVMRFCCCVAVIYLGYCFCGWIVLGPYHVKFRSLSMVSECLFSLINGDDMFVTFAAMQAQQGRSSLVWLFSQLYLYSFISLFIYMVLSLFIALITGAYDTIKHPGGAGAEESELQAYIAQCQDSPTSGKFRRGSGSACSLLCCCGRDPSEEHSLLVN
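Kinetic FDSS Ca2+ read in Tet-induced TRPML1-DL cells (ABD Ca8 dye plus quencher, 45-90 min RT loading): baseline, then compound, then 110 s agonist window; EC80 agonist 54-4 at 4uM final added afterwards for a 110 s antagonist window.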
PINK1 modulator: PINK1 expression modulation | PINK1 immunofluorescence, high-content cytometry, 24 h | Potency, µM (titrated, usually from 76.6 µM), without a hit: top-dose activation (PINK1 increase), hits mostly activators | 0.2% of 410,000 active | AID 624263; active = well fitted activation curve with a large enough effect; inconclusive = small, poorly fitted or top-dose-only effect; inactive = flat fitted curve, though single readings scatter; cell line not stated here;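 note: potency is the fitted concentration of half-maximal effect; % of control where 0% means no effect; nearly all actives have a fitted effect of over 65% in size; a mitochondrial uncoupler was the plate control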
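Stable cell line, 250 cells/well, 12 h attachment; compounds pinned at 5 concentrations, 24 h; CCCP control. Fixed with nuclear dye, primary antibodies 12 h at 10 degrees C, secondary plus cell stain; laser-scanning cytometer read.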
Sfp inh: Sfp phosphopantetheinyl transferase inhibition. Q9F4F7. Biochemical Sfp PPTase activity, qHTS. Potency, µM, for the others: max response, negative = inhibition, actives largely listed as inhibitors. 3.5% of 310,000 active; active = well fitted inhibition curve with a large enough effect; inconclusive = small, poorly fitted or top-dose-only effect, or another doubt; inactive = no such curve, though single readings can be large or run the other way;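 note: the enzyme is Sfp with the accession as filed and its product quenches rhodamine fluorescence; potency is the fitted concentration of half-maximal effect; 0% = enzyme reaction without inhibitor and -100% = no enzyme wells; top concentration of the series not given in the record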
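Reaction rates are the 30-min fluorescence difference (ex 525, em 598 nm) in wells containing 15 nM Sfp, 5 uM rhodamine-CoA and 12.5 uM BHQ-2-YbbR at pH 7.6 with 10 mM MgCl2.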
Menin MLL FP FL: displaces fluorescein MLL peptide from human menin; Fluorescence polarization, fluorescein-MLL peptide displacement from menin; 290,000 tested, under 10 active; FP activity change, % at 61.4 µM; AID 1766; inconclusive = falling polarisation curve, or a change in total fluorescence; inactive = total fluorescence flat and polarisation flat or rising; no compound was filed as active; the % refers to the polarisation; negative = inhibition;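 note: % of control where 0% means no effect; inhibitors lower the polarisation; unlabelled MLL peptide was the positive control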
TRPML1 inh: inhibitors of human TRPML1 channel; AID 624415; 0.02% of 390,000 active; TRPML1-inducible cells, Ca2+ dye fluorescence, FDSS; active compounds read low; inhibition of EC80 agonist-evoked calcium signal; activity change, negative = inhibition, % (concentration not given with the values); Q9GZU1; in the data active means activity change below about -50%; inconclusive means about -30% to -50%; inactive means above about -30%;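 note: stimulus is agonist 54-4 at its EC80 concentration; % is set by controls: 0 for no effect and ±100 for the full control effect; the text of the record puts the active cut at -80%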
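Tet-induced TRPML1-DL cells loaded with Ca8 no-wash calcium dye were read kinetically on FDSS. Compound addition was followed by EC80 agonist 54-4 (4 uM final); inhibition was read over 110 s.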
ClpP mod: qHTS Assay for Activators of ClpP; 1.9% of 340,000 active; Potency, µM (series often up to 57.5 µM), for the others: top-dose activity change, negative = active; purified B. subtilis ClpP, FRET peptide cleavage, 20 min; AID 651965, 2013; ATP-dependent Clp protease proteolytic subunit (Bacillus subtilis (strain 168)), P80244; active = well fitted falling curve with a large enough effect; inconclusive = small, poorly fitted or top-dose-only effect; inactive = no such curve, though single readings can be large or run the other way; note: potency is the fitted concentration of half-maximal effect; the source files actives as falling curves though it sought activators and does not explain the sign; nearly all actives have a fitted effect of over 65% in size; many hits overshoot -100%
Target sequence (P80244 whole entry, looked up): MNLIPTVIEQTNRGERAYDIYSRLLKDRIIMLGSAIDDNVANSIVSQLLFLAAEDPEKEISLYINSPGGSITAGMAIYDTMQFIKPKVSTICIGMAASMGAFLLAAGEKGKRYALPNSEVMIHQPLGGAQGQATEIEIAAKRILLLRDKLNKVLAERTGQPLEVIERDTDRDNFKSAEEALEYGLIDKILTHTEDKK
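ClpP 10 microg/mL final, pH 8 Tris/KCl buffer with BSA, glycerol, Tween-20; compound pinned in; FRET-FV substrate; RT 20 min; Ex320/Em430; ΔFRET vs ADEP 5.8 microM, DMSO, no enzyme.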
* hit, by the source's call; ? = inconclusive; nt = no result given; & = joins results of further samples; [ ] = another dose, or the depositor's remark. Rows are unselected. About 4.4% of those tested had a hit in this group.

Screens in order – TRPV1 PAM	TRPML1 ag	PINK1 modulator	Sfp inh	Menin MLL FP FL	TRPML1 inh	ClpP mod
CNC(=O)[C@H]1O[C@@H](n2cnc3c(NCc4cccc(I)c4)ncnc32)[C@H](O)[C@@H]1O
→ 15	1.1	-1.2%	6%&20%	nt	-6	0.1%
CN1CCN(C(CNC(=O)c2ccc(F)cc2)c2ccc3c(c2)OCO3)CC1 (stereo not given)
→ nt	0.0	-1.6%	nt	nt	-7	0.4%
CN(C)c1ccc(C(CNS(=O)(=O)c2ccc([N+](=O)[O-])cc2)N2CCOCC2)cc1 (stereo not given)
→ 3	-0.3	0.8%	nt	nt	0	nt
Cc1nn(C)cc1S(=O)(=O)N1CCN(c2cccc(Cl)c2)CC1
→ -10	0.0	4.9%	17%	0.6	9	3.2%
CCCN(CCC)C(=O)CSc1nc2sc3c(c2c(=O)n1-c1ccccc1)CCN(C(C)=O)C3
→ nt	0.6	2.2%	nt	nt	-12	0.5%
CN1CCN(c2oc(-c3cccs3)nc2S(=O)(=O)c2ccccc2)CC1
→ -1	-0.7	-1.3%	1%	1.8	31	-6.0%
CC(=O)Nc1ccc(C2=NN(C)C(=NCc3ccccc3)SC2)cc1
→ -3	0.4	7.9%	-15%	-0.6	9	nt
COc1cccc(C(=O)N2CCN(C3CCC(c4ccccc4)CC3)CC2)c1 (stereo not given)
→ -9	0.1	-1.4%	-26%	0.6	?	-8.6%
O=C(CN1C(=O)S/C(=C/c2ccc(N3CCOCC3)cc2)C1=O)N1CCOCC1
→ -1	3.4	16%	14%	28	7	0.3%
CC1=CCC2C(=O)N(c3nc(C)cc(C)n3)C(=O)C2C1 (stereo not given)
→ 1	0.8	-1.8%	13%	-1.2	-16	-1.0%
COc1ccc(-c2cccc(NC(=O)c3cccs3)c2)nn1
→ -1	1.7	0.0%	nt	nt	-5	-0.7%
C/C(=N\N=c1/sc2ccccc2n1C)c1ccccn1
→ -5	1.2	4.8%	-15%	-1.2	-21	1.8%
CCOC(=O)C1CCN(CCC(=O)Nc2ccc(Br)cc2)CC1
→ -7	4.1	-1.7%	14%	1.4	-4	-4.8%
COc1ccc(C2/C=C\CN(Cc3ccncc3)CC(=O)N2Cc2ccc(F)cc2)cc1 (stereo not given)
→ -14	1.6&0.4	1.0%	2%&12%	1.7&5.0	5&17	-6.2%
CCOc1ccc(N2C(=O)c3cccnc3C2=O)cc1
→ 16	0.6	3.8%[38.3 µM]	7%	0.6	2	-0.7%
Cc1nn(-c2ccc(F)cc2)c(C)c1CN1CCN(Cc2ccccc2)C(CCO)C1 (stereo not given)
→ 0	7.1	-2.3%	20%	0.5	-11	nt
O=C(Nn1c(O)c(C=C2N=c3ccccc3=N2)sc1=S)c1ccccc1Cl
→ -3	0.8	14%[38.3 µM]	-13%	2.8	7	-2.9%
O=C(NCc1cccc(C(F)(F)F)c1)c1cc(Cl)ccc1Cl
→ -13	2.4	-0.1%	1%	8.7	-2	-1.4%
COc1ccc(N/C=C/C(=C(C#N)C#N)N(C)C)cc1
→ 7	-0.6	0.7%	10%	1.2	-21	nt
COc1ccccc1OCCC(=O)OCC(=O)Nc1ccc(Br)cc1
→ -8	0.8	-0.3%	13%	-5.5	3	28µM*
O=C(NNC(=O)C1CC1)Nc1ccc(Cl)cc1
→ -1	-0.2	0.0%	22%	nt	53	2.6%
Cc1ccc(N2CC(C(=O)N(C)CC(=O)Nc3ccc(Cl)c(C(F)(F)F)c3)CC2=O)cc1 (stereo not given)
→ -3	-0.5	0.6%	nt	nt	-1	-0.3%
Cc1cc(-c2nnc(CCC(=O)NCc3ccc(F)c(F)c3)o2)no1
→ -23	-0.9	-0.9%	5%	0.1	-1	1.0%
Cc1cccc[n+]1CC(=O)c1ccc([N+](=O)[O-])cc1
→ nt	-0.2	0.7%	nt	nt	8	nt
Cc1nn(C(C)(C)C)c(OC(=O)c2ccc3c(c2)OCO3)c1Sc1ccccc1
→ -3	1.8	-0.3%	-16%	0.9	-2	32µM*
CCCSc1nnc(CSc2nc3ccccc3s2)n1-c1ccccc1
→ -17	3.8	26%[38.3 µM]	-23%	0.3	-18	-0.8%
Cc1cc(C(=O)COC(=O)c2cccnc2Cl)c(C)n1CC1CCCO1 (stereo not given)
→ -28	3.6	2.2%	2%	-5.7	-14	1.3%
Cc1ccc(-c2nn(C)c(=O)c3ccccc23)cc1CN1CCOCC1
→ -8	-0.1	0.7%	27%	-0.2	31	1.1%
CN(C)c1ccc(N2C(=NC(=O)C3CCCO3)SC3CS(=O)(=O)CC32)cc1 (stereo not given)
→ 20	0.0	0.9%	-2%	nt	-13	-1.0%
CCOC(=O)Cn1cc(C(=O)c2ccco2)c2ccccc21
→ 4	-1.2	0.5%	-4%	-0.6	29	-1.7%
COc1cc(C2C(C(=O)Nc3ccccc3)=C(C)Nc3nc(SCc4ccccc4F)nn32)cc(OC)c1OC (stereo not given)
→ nt	-0.3	-1.0%	nt	nt	0	-0.3%
Cc1ccc2nc(NC(=O)CCNS(=O)(=O)c3cccs3)sc2c1
→ 5	0.1	-1.3%	4%	2.0	-8	-3.8%
Cc1cc(C)cc(-n2c(SCC(=O)NC3CCCCC3)nc3c([nH]c4ccccc43)c2=O)c1
→ nt	0.9	1.8%	nt	nt	-3	-18%
O=C(Nc1nc2ccccc2[nH]1)c1ccc(OC(F)F)cc1
→ 2	0.5	-1.1%	14%	0.6	-9	nt
CC1(C)CC(=O)C2=C(C1)N(N1CCOCC1)C(N)=C(C#N)C2c1cccs1 (stereo not given)
→ 0	0.8	2.4%	-18%	7.4	44	0.5%
O=C(N=C1SC2CS(=O)(=O)CC2N1c1ccccc1)C1CCCCC1 (stereo not given)
→ 28	-1.5	0.9%	3%	-1.2	-1	0.7%
Cc1ccc(C(CNS(=O)(=O)c2ccc(Br)cc2)N2CCN(C)CC2)cc1 (stereo not given)
→ 4	2.6	6.3%	nt	nt	17	0.8%
N#Cc1ccc(NC(=O)CN2C(=O)NC(Cc3ccccc3)C2=O)cc1 (stereo not given)
→ 3	0.5	-1.3%	19%	3.6	32	-2.0%
CC1CCN(C(=O)c2ncn3c2c(=O)[nH]c2cccnc23)CC1
→ nt	-0.3	-0.5%	nt	nt	41	-19%
CCCn1c(SCC(=O)Nc2ccc(NC(C)=O)cc2)nc2c1c(=O)n(C)c(=O)n2C
→ -3	0.2	0.5%	-4%	nt	5	nt
CCN(CC)S(=O)(=O)c1cccc(C(=O)NC(C(=O)NCCc2ccccn2)C(C)C)c1 (stereo not given)
→ nt	-1.0	3.9%	nt	nt	-22	nt
Cc1oc2ccc(OCc3ccc(Br)cc3)cc2c1C(=O)O
→ 3	0.0	1.9%	-10%	1.1	-13	nt
c1ccc2c(CN3CCOCC3)csc2c1
→ -8	0.3	-0.9%	2%	5.9	39	1.3%
Cn1c(N)c(C(=O)COC(=O)c2ccc3ccccc3c2)c(=O)n(C)c1=O
→ nt	0.0	9.7%	nt	nt	0	-1.1%
CON=C1CCN(c2ncc(C(F)(F)F)cc2Cl)CC1
→ -4	-0.4	0.2%	0%	2.1	3	-1.3%
COC(=O)C/C=N/N=C1/NC(=O)/C(=C/C(=O)O)S1
→ 1	0.4	1.0%	?	?	-24	-0.1%
CSc1ccccc1NC(=O)COC(=O)c1cnc(C)cn1
→ nt	2.1	-1.0%	nt	nt	41	-2.8%
CCCOc1ccc(C(=O)Nc2ccc(NC(=O)c3ccc(Br)cc3)cc2)cc1
→ nt	-0.3	1.7%	nt	nt	20	?
O=C(N/N=C/c1cc([N+](=O)[O-])ccc1Cl)c1ccc2nc[nH]c2c1
→ -5	0.8	1.6%	0%	-1.0	-20	0.7%
O=C(Cn1cc(S(=O)(=O)Cc2ccccc2F)c2ccccc21)N1CCOCC1
→ 4	-0.4	-0.3%	-16%	nt	3	1.7%
COc1cccc(CN(C)C(=O)c2cccc(S(=O)(=O)NCc3ccccc3)c2)c1OC
→ -11	-0.2	-1.1%	nt	nt	-12	-2.5%
CCOC(=O)c1sc(NC(=O)CSc2ncn(-c3ccccc3)n2)nc1C
→ 3	2.7	0.0%	2%	2.5	27	-1.9%
CCCCNC(=O)c1nc(C2CCN(S(=O)(=O)c3c(F)cccc3F)CC2)oc1-c1cccc(C(F)(F)F)c1
→ nt	-0.6	0.5%	nt	nt	nt	-13%
CSc1ccccc1NC(=O)c1ccc([N+](=O)[O-])cc1
→ -4	-1.6	0.7%	56µM*	-0.6	37	0.6%
CC(C)CCN1C(Nc2ccccc2)=NC[C@@H]1C
→ -4	0.3	0.6%	5%	0.0	61	0.2%
COc1ccc(/C=C\c2onc(C)c2S(=O)(=O)N2CCC(C(=O)Nc3ccccc3OC)CC2)cc1
→ nt	2.7	2.4%	nt	nt	-17	-28%
CCCNCc1cc(OC)c(OCC(=O)Nc2ccccc2)cc1Br
→ 28	0.5	-0.2%	14%	-1.7	1	nt
COc1ccc(NC(=O)c2cn(-c3ccccc3)nc2-c2ccncc2)cc1
→ 15	2.3	0.5%	-5%	-0.7	19	nt
COc1ccc(C)cc1NC(=O)c1c(C(=O)Nc2cccc(C)c2C)sc2nc(C)cc(=O)n12
→ nt	-0.3	0.6%	nt	nt	-14	0.2%
C=Cc1ccc(CSc2nc(-c3ccc(C)cc3)nc3c2Cc2c(CO)cnc(C)c2O3)cc1
→ nt	0.3	0.6%	nt	nt	-12	-4.9%

Next records.
Screens in order – TRPV1 PAM	TRPML1 ag	PINK1 modulator	Sfp inh	Menin MLL FP FL	TRPML1 inh	ClpP mod
O=C(c1ccc(NS(=O)(=O)c2ccccc2)cc1)N1CCN(Cc2ccc3c(c2)OCO3)CC1
→ 2	1.2	6.0%	-4%	-1.9	-2	-1.3%
CC(=O)Nc1ccc(NC(=O)CSc2n[nH]c(-c3cccs3)n2)cc1
→ 3	-0.1	-3.6%	nt	nt	14	-2.1%
O=C(NCC12CC3CC(CC(C3)C1)C2)c1cc2n(n1)C(C(F)(F)F)CC(c1ccco1)N2 (stereo not given)
→ nt	1.9	8.9%	7%	3.7	2	2.0%
CCOC(=O)N1CCN(C(=O)CSCC(=O)Nc2nc(-c3ccc(OC)cc3)cs2)CC1
→ -2	1.3	7.5%[38.3 µM]	7%	-1.1	6	-1.8%
